MbtI inh = MbtI salicylate synthase inhibition; P9WFX0; purified MbtI enzyme, fluorescence intensity read-out; inhibition, %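 (about 17 µg/mL by stock and volumes)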; actives 0.89% (n = 100,000);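 active = above 50% in both replicates, above 80% if mildly self-fluorescent; inactive = the rest, strongly fluorescent compounds included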;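 note: 0% = mean of negative and 100% = mean of positive controls; one replicate is shown; some compounds called inactive have numbers as strong as hits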
Target sequence (P9WFX0 whole entry, looked up): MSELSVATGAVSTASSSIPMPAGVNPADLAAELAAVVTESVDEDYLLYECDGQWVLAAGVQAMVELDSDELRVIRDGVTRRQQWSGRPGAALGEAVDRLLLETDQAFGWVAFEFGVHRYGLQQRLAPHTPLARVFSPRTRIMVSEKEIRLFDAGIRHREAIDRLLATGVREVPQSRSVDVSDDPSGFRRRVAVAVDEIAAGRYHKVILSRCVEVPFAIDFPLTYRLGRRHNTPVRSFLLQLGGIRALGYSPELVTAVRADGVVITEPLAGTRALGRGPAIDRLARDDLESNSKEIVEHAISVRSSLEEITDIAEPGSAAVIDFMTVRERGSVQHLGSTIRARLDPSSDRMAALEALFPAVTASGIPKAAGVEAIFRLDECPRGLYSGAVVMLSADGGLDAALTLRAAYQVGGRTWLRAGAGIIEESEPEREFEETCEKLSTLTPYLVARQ
Mtb MenB inh = Mtb MenB enzyme inhibition. MenB enzyme assay, absorbance read-out; some hits fall short of the stated cut. inhibition, %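 (about 12 µg/mL by stock and volumes)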. actives 0.43% (n = 100,000);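 active = mean of two replicates above 30%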;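 note: 0% = no compound and 100% = wells with inactive enzyme; the first replicate is given; strong numbers were not always called active; inactives centre near -10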
Target sequence (P9WNP5 whole entry, looked up): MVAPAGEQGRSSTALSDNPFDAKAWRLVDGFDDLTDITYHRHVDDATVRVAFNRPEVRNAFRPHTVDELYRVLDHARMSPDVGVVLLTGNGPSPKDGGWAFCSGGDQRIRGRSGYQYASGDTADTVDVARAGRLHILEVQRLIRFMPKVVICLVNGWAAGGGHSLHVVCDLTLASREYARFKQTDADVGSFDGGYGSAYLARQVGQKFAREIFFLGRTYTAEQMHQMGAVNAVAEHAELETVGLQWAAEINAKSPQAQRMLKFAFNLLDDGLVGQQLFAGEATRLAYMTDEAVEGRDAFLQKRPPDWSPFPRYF
PV pol inh = inhibitors of poliovirus RNA polymerase binding and polymerization | P03300 | poliovirus polymerase elongation, fluorescence polarization; hits give low values | actives 0.66% (n = 150,000) | % elongation, % (compound at 16.7 µg/mL); in the data active = % elongation below about 90%; note: some results filed as inactive read as strong as hits
PV pol inh intensity = second read-out of PV pol inh, no call of its own (marks repeat the call); % elongation; measured here: total intensity read-out; formula for this scale not given here;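 total fluorescence in place of polarization; lower means less elongation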
* marks the source's active call; other numbers are inactive results; i = inactive; / = no result given; & = joins results of further samples.

SMILES	MbtI inh	Mtb MenB inh	PV pol inh	PV pol inh intensity
Cc1ccc2[nH]c(=O)c(CN(Cc3nnnn3CCc3ccccc3)C3CCCC3)cc2c1	-1	18	101	101
CC(=O)Nc1ccc(S(=O)(=O)NCCC(c2ccccc2)c2ccccc2)cc1	/	-15	98	103
O=C(CN1C(=O)/C(=C\c2ccc(F)cc2)N=C1c1ccccc1)c1ccco1	-14	0	102	104
CC(NC(C)(C)C)C(=O)c1cccc(Cl)c1 (stereo not given)	-5&-11	-3&-5	98&99	101&102
Cc1ccc(N2C(=O)NC(c3ccccc3)(C(F)(F)F)C2=O)nc1 (stereo not given)	-22	-20	103	102
COc1c(F)c(F)c(C(=O)O)c(Nc2cccc(C)c2)c1F	15	14	100	98
COc1ccccc1NCC(O)Cn1ccc2ccccc21 (stereo not given)	-1	-37	102	102
Cc1cccc(C)c1OCC(=O)N1CCc2ccccc21	/	-3	99	97
N#Cc1nc2c(-c3nc4ccccc4s3)c(N)n(Cc3ccccc3)c2nc1C#N	3	7	98	107
COc1ccccc1COC(=O)C1CCC1	-4	/	100	96
O=C(CC1(O)C(=O)N(Cc2ccccc2)c2ccccc21)c1ccc(Br)cc1 (stereo not given)	11	-27	102	98
Cc1csc(C/C(N)=N/O)n1	0	1	102	124
Nc1cccc(CCc2ccccn2)c1	-2	9	100	102
S=C1Cc2ccccc2N1	3	-137	136	143
COC(=O)CN1C(CN2CCOCC2)=Nc2ccc(Br)cc2C1c1ccccc1 (stereo not given)	6	-8	104	104
CS(=O)(=O)N1Cc2ccccc2CC1C(=O)OCC(=O)c1ccccc1F (stereo not given)	-4	-4	102	108
COc1ccc2c(C)cc(N3CCC(C(N)=O)CC3)nc2c1	88	-1	123	174
Cc1nc(CCNS(=O)(=O)c2cccs2)cs1	2	-1	103	107
CS(=O)(=O)c1ccc2nc(NC(=O)COc3ccccc3)sc2c1	2	-8	99	101
Cc1cnc2c(c1SCC(=O)NC1CCCC1)c(=O)n(C)c(=O)n2C	-12	-10	103	107
COc1ccc(-n2cc(-c3ccccc3)c3c(NN4CCOCC4)ncnc32)cc1	-33	-24	102	102
CC1(C)CC(n2[nH]c(=O)cc2N)CCO1 (stereo not given)	/	23	103	93
O=C(CCc1nc2ncccc2c(=O)n1Cc1ccccc1Cl)N1CCN(c2ccccc2)CC1	6	-5	104	111
NNC(=O)c1cc(=S)nc[nH]1	99*	-35	97	98
COc1ccc(S(=O)(=O)N2C3CCC2CC(NC(=O)NC2CCCCC2)C3)cc1 (stereo not given)	1	-25	102	99
CN1C(=O)c2ccccc2C(C(=O)NCCCN2CCCC2=O)C1c1cn(C)c2ccccc12 (stereo not given)	8	2	98	105
Cc1nc2cc(N3CCN(C)CC3)c(NC(=O)C3CC3)cc2c(=O)n1Cc1ccccc1	-1	-29	104	103
Cc1ccc2c(c1)C1CN(C)CCC1N2C(=O)c1ccc(Br)cc1 (stereo not given)	-6	-9	105	102
O=C1c2ccccc2NC(c2ccco2)N1O (stereo not given)	32	1	101	102
O=C(NCc1cccc(F)c1)C1CC(O)CN1C(=O)Nc1ccccc1 (stereo not given)	-7	22	101	102
CCNC(=S)Nc1ccc(NC(=O)c2ccccc2O)cc1	-39	-17	102	92
O=C(NCCOc1ccccc1Cl)c1ncn[nH]1	-4	-57	101	102
c1cnc(N2CC[N+]3(CCCC3)CC2)nc1	44	-17	104	103
CN(C)/C=N/S(=O)(=O)c1ccc(Cl)c(Cl)c1	-1	-1	108	107
Nc1ccc(N=C2C(=O)Nc3ccccc32)cc1	22	-149	/	/
COCCCn1c(=O)c(C#N)cc2c(=O)n3ccccc3nc21	87	-83	101	116
Cc1cc(=O)n2nc(C)sc2n1	9	1	100	102
O=C(O)c1ccc(NC(=O)c2cc3c([nH]c2=O)CCCC3=O)cc1	3	-3	100	104
Cc1oc(C(C)(C)C)cc1C(=O)C(C#N)=C1SCCS1	3	-8	104	98
COC(=O)c1ccc(-n2c(C)cc(/C=N/N(C)C)c2C)cc1	35	-21	104	101
CC(=O)N1CCC(N(CCN2CCOCC2)C(=S)Nc2cccc(C(F)(F)F)c2)CC1	-13	-33	99	101
Oc1ccc(N2CCN(c3nc(-c4cccnc4)nc4ccccc34)CC2)cc1	1	-27	104	100
COc1cccc2cc(-c3cc(=O)oc4cc(C)c(OC(=O)N(C)C)cc34)oc12	-1	-16	100	106
Cc1c(N=CC2CCCN3CCCCC23)c(=O)n(-c2ccccc2)n1C (stereo not given)	/	-19	107	112
CCOC(=O)c1c(C)n(Cc2ccccc2)c2ccc(OCC(O)CN3CCCCCC3)cc12 (stereo not given)	/	1	100	100
CCOC(=O)Nc1ccc2c(CN3CCN(c4ccc(OC)cc4)CC3)cc(=O)oc2c1	-1	4	101	101
Cc1ccc(N2C(=O)/C(=C/N(C)C)c3ccccc3C2=O)cc1	99	8	90	91
COc1cccc(N2CC(NC(=O)NC(C)(CO)CO)CC2=O)c1 (stereo not given)	-5	-18	100	103
Cc1ccc(-c2csc3ncnc(NCCN4CCNC4=O)c23)cc1	-7	-23	104	102
Cc1ccc(C)c(-n2c(=O)c3ccccc3n3c(SCc4ccc(C#N)cc4)nnc23)c1	34	-23	103	107
Cc1ccc2c(c1)sc1nc(-c3cc4ccccc4oc3=O)cn12	-5	-25	105&104	113&103
CCC(=O)Nc1sc(C)c(CC)c1C(=O)NC1CC1	42	0	99	103
COC(=O)c1cc(=O)nc2n1C1O[C@H](CO)C(O)[C@H]1O2 (stereo not given in full)	-8	-12	102	105
Cc1ccc(S(=O)(=O)NC2CCCCC2)cc1-c1nnc2c3ccccc3c(C)nn12	2	-8	105	104
O=C(CNc1ccccc1N1CCCCC1)Nc1ccc(F)cc1Cl	-4	-15	106	106
O=C(O)c1cc(-c2ccc(N3CCOCC3)cc2)nn1-c1ccc(F)cc1	5	4	104	97
CN1[C@@H]2CC[C@H]1CC(OC(=O)[C@@H](CO)c1ccccc1)C2 (stereo not given in full)	-5	-15	105	103
OC(COc1ccc2cc(Br)ccc2c1)Cn1cccn1 (stereo not given)	/	28*	103	106
O=C1C=C(NCc2ccncc2)CC(c2ccccc2)C1 (stereo not given)	10	-9	101	102
COC(=O)[C@H](C)NC(=O)c1ccc(S(=O)(=O)N2CCOCC2)cc1	1	13	103	110

Some of the entries so far, as comma-separated lines.
smiles,MbtI inh,Mtb MenB inh,PV pol inh,PV pol inh intensity
CN1[C@@H]2CC[C@H]1CC(OC(=O)[C@@H](CO)c1ccccc1)C2 (stereo not given in full),-5,-15,105,103
CCC(=O)Nc1sc(C)c(CC)c1C(=O)NC1CC1,42,0,99,103
Cc1ccc(C)c(-n2c(=O)c3ccccc3n3c(SCc4ccc(C#N)cc4)nnc23)c1,34,-23,103,107
Cc1ccc2c(c1)sc1nc(-c3cc4ccccc4oc3=O)cn12,-5,-25,105&104,113&103
COC(=O)[C@H](C)NC(=O)c1ccc(S(=O)(=O)N2CCOCC2)cc1,1,13,103,110
CCOC(=O)Nc1ccc2c(CN3CCN(c4ccc(OC)cc4)CC3)cc(=O)oc2c1,-1,4,101,101

Next entries.
SMILES	MbtI inh	Mtb MenB inh	PV pol inh	PV pol inh intensity
Cc1cc(=O)[nH]c(N/N=C2/CCc3ccccc3C2)n1	-33	-34	92	101
CSc1nnc(SCC(=O)NC(=O)c2cccn2C)s1	4	-6	110	118
CCCCC(=O)Nc1ccc2oc(-c3ccc(O)c(Br)c3)nc2c1	125	-17	101	103
CCn1nc(C(=O)OCCCCN2C(=O)c3ccccc3C2=O)c2ccccc2c1=O	-2	-2	104	104
CNC(=O)CCCn1c(C)c2cnn(-c3ccccc3)c(=O)c2c1C	1	-23	105	103
CC(=O)Nc1ccc(C(=O)OCC(=O)N(C)C2CCS(=O)(=O)C2)cc1 (stereo not given)	-2	-41	100	94
Cn1c(COc2cccc3cccnc23)nnc1SCC(=O)O	8	-18	106	108
COc1ccnc(CS(=O)c2nc3ccc(OC(F)F)cc3[nH]2)c1OC (stereo not given)	-12	-8	100	100
CC(=O)O/N=C(\N)c1ccc(-c2csnn2)cc1	6	3	102	102
O=C(c1cc(-c2ccco2)[nH]n1)N1CCN(c2cccc(Cl)c2)CC1	2	-11	103	103
C=CCNc1ncnc2c1c(-c1ccccc1)cn2-c1ccc(OCC)cc1	62	-26	102	100
COc1ccc(CNC(=O)CSc2nc3cc(Cl)ccc3o2)cc1OC	3	-12	101	100
O=C1c2ccccc2NC(c2ccncc2)N1c1ccccn1 (stereo not given)	87	-14	106	102
CC1(C)CC(=NNC(N)=S)CC(C)(C)N1	3	9	100	104
CC(C)CN(CC(C)C)S(=O)(=O)c1ccc(C(=O)O)cc1	-13	-6	101	103

Given as a markdown table: part of the list above.
| canonical_smiles | MbtI inh | Mtb MenB inh | PV pol inh | PV pol inh intensity |
| --- | --- | --- | --- | --- |
| C=CCNc1ncnc2c1c(-c1ccccc1)cn2-c1ccc(OCC)cc1 | 62 | -26 | 102 | 100 |
| Cc1ccc(C)c(-n2c(=O)c3ccccc3n3c(SCc4ccc(C#N)cc4)nnc23)c1 | 34 | -23 | 103 | 107 |
| CC(=O)N1CCC(N(CCN2CCOCC2)C(=S)Nc2cccc(C(F)(F)F)c2)CC1 | -13 | -33 | 99 | 101 |
| CS(=O)(=O)c1ccc2nc(NC(=O)COc3ccccc3)sc2c1 | 2 | -8 | 99 | 101 |
| NNC(=O)c1cc(=S)nc[nH]1 | 99* | -35 | 97 | 98 |
| CCNC(=S)Nc1ccc(NC(=O)c2ccccc2O)cc1 | -39 | -17 | 102 | 92 |
| c1cnc(N2CC[N+]3(CCCC3)CC2)nc1 | 44 | -17 | 104 | 103 |

Next section
SMILES	MbtI inh	Mtb MenB inh	PV pol inh	PV pol inh intensity
COc1cccc(-c2noc(NCCN3CCOCC3)n2)c1	-9	-12	100	103
Cc1ccc(C(O)CSc2nnc(-c3ccc4ccccc4c3)n2C)cc1 (stereo not given)	-10	8	101	101
CCc1ccccc1NC(=O)CCC(=O)O	-9	32*	100	105
CCNC(=S)N/N=C/c1ccccc1C(=O)O	20	-10	102	104
CC(NC(=O)C12CC3CC(CC(O)(C3)C1)C2)c1ccccc1 (stereo not given)	-6	-13	101	93
O=C(COC(=O)c1n[nH]c2ccccc12)NC(c1ccccc1)c1ccccc1	12	/	102	104
CC(C#N)OC(=O)Cn1cc(C(F)(F)F)ccc1=O (stereo not given)	6	-5	99	97
CN1C(=O)C2CN(CCc3ccccc3)CNC2N(C)C1=O (stereo not given)	/	-7	102	104
O=C(CNC(=O)c1ccccc1F)OCc1nc2ccc(Cl)cc2n1CCO	-10	-5	106	112
Cc1cc(=O)nc2c3ccccc3n(CC(=O)N3CCCC3)n12	101	5	104	104
COc1ccc(Nc2nccc(-c3ccc(N)cc3)n2)cc1	9	7	101	105
Cc1nnc(SC2CCNCC2)s1	3	-22	104	102
CC(=O)N/C(N)=N\c1nc(C)c2ccc(C)cc2n1	i	17	101	107
O=C(NCCCn1ccnc1)c1ccccc1OCc1ccccc1	-5	/	101	99
Cc1nn(C2CCS(=O)(=O)C2)c(Cl)c1/C=C/C(=O)OCn1nnc2ccccc2c1=O (stereo not given)	-5	4	101	97
Cc1cccc(-c2noc(CCCC(N)=O)n2)c1	20	17	102	102
CC(C)(C)OC(=O)N1CCN(C(=O)c2ccc(Oc3cccnc3)o2)CC1	-3	-3	104	112
Nc1ccccc1C(=O)CSc1ccccn1	58	-65	101	101
COC(=O)c1sc(=S)n(-c2cc(OC)ccc2OC)c1N	18	-20	98	92
Cc1cc(NC(=O)CSc2ccccc2)no1	4	32*	98	101
COc1ccc(-n2cc3c(c(C#N)c2=N)CC(C)(C)CC3=O)c(OC)c1	-2	-15	78	147
CCCN(CCC)Cn1nc(-c2ccc3c(c2)OCO3)oc1=S	0	-17	105	105
CCc1nnc(NC(=O)c2ccc3c(c2)S(=O)(=O)c2ccccc2C3=O)s1	-2	-7	101	105
CC1CCN(C(=O)Cn2nc(-c3ccc(Cl)cc3)ccc2=O)CC1	17	0	102	93
COc1ccc2c(CNC3CCCCCC3)c(C(=O)O)[nH]c2c1	-68	6	101	98
N[n+]1cnn(CC(=O)c2ccc(Cl)cc2)c1	11	-65	102	102
O=C(SC1=NCCS1)c1cccc(Cl)c1	2	-23	98	95
